Bioassay records: PubChem, Broad Institute
BJeLR viability: MLPCN primary cell-based screen for lethality selective to Ras in HRASV12 cells; BJeLR (HRASV12) viability, CellTiter-Glo ATP luminescence, 48 h; reference of the scale not given here; 300,000 compounds, 0.17% hits; inhibition, % (no concentration beside the values); AID 1554, 2009;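 active = replicate mean above 50%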;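 note: 50 nL library stock added to about 25 µL; numbers are from one replicate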
* hit, by the source's call. These rows are one share of the data; the hit share may differ from the screen's.

Screening CC(O)(CC(=O)O)CC(=O)O returned BJeLR viability -4.3.
For COc1ccc(C2=NNC(c3cc(Cl)cc4c3OCOC4)C2)c(O)c1 (stereo unspecified) the results were BJeLR viability 5.7.
Screening C=CCNC(=O)c1cc2c(=O)n3cc(C)ccc3nc2nc1NCC1CCCO1 (stereo unspecified) returned BJeLR viability 5.1.
COc1ccc(/C=N/c2sc3c(c2C#N)CCN(Cc2ccccc2)C3)c(O)c1 was read as BJeLR viability -1.7.
`O=C(COc1cccc2ccccc12)Nc1cc(S(=O)(=O)N2CCOCC2)ccc1N1CCOCC1` gave BJeLR viability -15.4.
Screening CC1(OC(=O)C2CCCC2)C(=O)C=C2C=C(C3CC3)OC=C2C1=O (stereo unspecified) returned BJeLR viability -7.5.
Screening Cc1cccc2cc(/C=N/NC(=O)CN3CCCCC3)c(Cl)nc12 returned BJeLR viability -0.6.
For O=C1CSC(=S)N1/N=C/c1cc(Br)ccc1O the results were BJeLR viability -9.0.
OC[C@H]1O[C@@H]2O[C@H]3[C@H](O)[C@@H](O)[C@@H](O[C@H]4[C@H](O)[C@@H](O)[C@@H](O[C@H]5[C@H](O)[C@@H](O)[C@@H](O[C@H]6[C@H](O)[C@@H](O)[C@@H](O[C@H]7[C@H](O)[C@@H](O)[C@@H](O[C@H]1[C@H](O)[C@H]2O)O[C@@H]7CO)O[C@@H]6CO)O[C@@H]5CO)O[C@@H]4CO)O[C@@H]3CO was read as BJeLR viability -5.5.
Screening COc1ccc(/C=N/NC(=O)c2ccncc2)cc1COc1ccc(NC(C)=O)cc1 returned BJeLR viability -1.4.
CC(C)(C)OC(=O)NCCCC1=CC2=CC(=O)C(C)(OC(=O)C3CCCC3)C(=O)C2=CO1 (stereo unspecified) was read as BJeLR viability 5.8.
Screening CCOC(=O)C1=NN(C(=O)c2cccc(Br)c2)C(O)(C(C)(C)C)C1 (stereo unspecified) returned BJeLR viability -4.3.
For Cc1ccc(NC(=S)NC(=O)c2sc3ccccc3c2Cl)c(C(=O)O)c1 the results were BJeLR viability -1.5.
Screening NCCc1ccccn1 returned BJeLR viability 3.2.
FC(F)(F)c1cccc(NC(=S)NNC(=S)Nc2cccc(C(F)(F)F)c2)c1 was read as BJeLR viability 6.3.
`Cc1ccc(NC(=O)CN2C(=O)S/C(=C\c3ccc(-c4cccc(C(=O)O)c4C)o3)C2=O)cc1` gave BJeLR viability -1.8.
`COc1cc([N+](=O)[O-])cc(/C=N/NC(=O)CC#N)c1O` gave BJeLR viability 1.0.
`COc1ccc(C(=O)C2CCCN(Cc3c(C)[nH]c4ccccc34)C2)c(OC)c1` (stereo unspecified) gave BJeLR viability 9.5.
For Cc1cccc(N2CCN(C(=O)c3ccc4c(c3)NC(=O)C(CSCc3ccc(F)cc3)N4)CC2C)c1 (stereo unspecified) the results were BJeLR viability -1.5.
CCN1C(=O)[C@H]2[C@H]3[C@H](O)[C@H](O)C/C(=N\OC[C@@H](C)[C@H](OCc4ccccc4)C(C)C)[C@@H]3CC[C@H]2C1=O was read as BJeLR viability 5.8.
COc1ccccc1/C=N/NC(=O)c1ccc(NC(=O)c2cccc([N+](=O)[O-])c2)cc1 was read as BJeLR viability -1.0.
Screening O=C(CC1Nc2ccccc2NC1=O)c1ccccc1 (stereo unspecified) returned BJeLR viability 4.7.
Screening COc1ccc(/C=C2\SC(=Nc3ccccc3)NC2=O)cc1 returned BJeLR viability 1.1.
For Nc1c2c(nc3ccc(Br)cc13)N(C1CCCCC1)CC2 the results were BJeLR viability 4.0.

Six structures from above, sorted by molecular weight, lowest first.
Screening NCCc1ccccn1 returned BJeLR viability 3.2.
`COc1cc([N+](=O)[O-])cc(/C=N/NC(=O)CC#N)c1O` gave BJeLR viability 1.0.
`COc1ccc(C(=O)C2CCCN(Cc3c(C)[nH]c4ccccc34)C2)c(OC)c1` (stereo unspecified) gave BJeLR viability 9.5.
For Cc1ccc(NC(=S)NC(=O)c2sc3ccccc3c2Cl)c(C(=O)O)c1 the results were BJeLR viability -1.5.
COc1ccccc1/C=N/NC(=O)c1ccc(NC(=O)c2cccc([N+](=O)[O-])c2)cc1 was read as BJeLR viability -1.0.
For Cc1cccc(N2CCN(C(=O)c3ccc4c(c3)NC(=O)C(CSCc3ccc(F)cc3)N4)CC2C)c1 (stereo unspecified) the results were BJeLR viability -1.5.

Reprinted at random: 2 entries already listed
For Nc1c2c(nc3ccc(Br)cc13)N(C1CCCCC1)CC2 the results were BJeLR viability 4.0.
Screening COc1ccc(/C=C2\SC(=Nc3ccccc3)NC2=O)cc1 returned BJeLR viability 1.1.

Grouped by structure, the entries above containing a Cl atom
For COc1ccc(C2=NNC(c3cc(Cl)cc4c3OCOC4)C2)c(O)c1 (stereo unspecified) the results were BJeLR viability 5.7.
Screening Cc1cccc2cc(/C=N/NC(=O)CN3CCCCC3)c(Cl)nc12 returned BJeLR viability -0.6.
For Cc1ccc(NC(=S)NC(=O)c2sc3ccccc3c2Cl)c(C(=O)O)c1 the results were BJeLR viability -1.5.

Additional results:
Screening CC(=C\c1ccccc1)/C=C1/SC(=S)N(CCC(=O)Nc2ccccn2)C1=O returned BJeLR viability 4.0.
Screening O=C(CCCCCNC(=O)c1ccccc1)N=Nc1c(O)[nH]c2c(Br)cc(Br)cc12 returned BJeLR viability -1.6.
CCc1cc(C(=O)NC2CCCc3c2cnn3-c2cccc(C)c2C)n(C)n1 (stereo unspecified) was read as BJeLR viability 12.1.
For COC(=O)N/N=C(/c1ccccc1)C1CCCCC1 the results were BJeLR viability 0.3.
`COc1ccc(C(=O)NC(=O)COC(=O)c2ccc3ncsc3c2)cc1` gave BJeLR viability 3.0.
`COc1cccc([C@@H]2Oc3ccc(OC)cc3C(=O)[C@H]2OC(=O)NCc2ccc3c(c2)OCO3)c1` gave BJeLR viability 14.5.
For CNc1nc(SC)n(C)c(=O)c1N=O the results were BJeLR viability 2.6.
`N/C(=N\c1nc(C(F)(F)F)cc(=O)[nH]1)Nc1ccc(Cl)cc1` gave BJeLR viability 3.2.
`CCSc1nnc(NC(=O)/C=C/c2ccc3c(c2)OCO3)s1` gave BJeLR viability -2.7.
`O=c1c2ccc([N+](=O)[O-])c3cccc(c32)c2nc3ccccc3n12` gave BJeLR viability -2.9.
For CCN(CC)c1ccc2c(c1)CCCN2 the results were BJeLR viability -6.2.
C=CC[C@@H]1C=C[C@H](O/N=C/c2ccc(C(=O)N3[C@H](c4ccc(C)cc4)[C@@H](C)CC[C@H]3C(=O)OC)cc2)[C@@H](CO)O1 was read as BJeLR viability -2.3.
`Cn1c(=O)c2c(ncn2CC(=O)N/N=C/c2c[nH]c3ccccc23)n(C)c1=O` gave BJeLR viability -0.9.
For COc1ccc(N2C(=O)CC(S/C(N)=N/N=C/c3ccnc4ccccc34)C2=O)cc1 (stereo unspecified) the results were BJeLR viability -7.1.
Screening C#CCOCCOCCOCCNc1nc(N2CCN(C(=O)[C@H](CCCCN)n3cc([C@@H](N)CC(C)C)nn3)CC2)nc(N2CCN(C(=O)[C@H](Cc3ccc(O)cc3)n3cc([C@@H](N)CC(C)C)nn3)CC2)n1 returned BJeLR viability 6.2.
`CCCn1cc2c3c(cccc31)C1CC(C)CN(C)C1C2` (stereo unspecified) gave BJeLR viability 12.4.
For Cc1occc1C(=O)n1cnc2ccccc21 the results were BJeLR viability -21.2.
Screening C#CCOCCOCCOCCNc1nc(N2CCN(C(=O)[C@H](CCC(=O)O)n3cc(C(N)CO)nn3)CC2)nc(N2CCN(C(=O)[C@H](Cc3ccc(O)cc3)n3cc(C(N)[C@H](C)CC)nn3)CC2)n1 (stereo partly specified) returned BJeLR viability -13.0.
For COC(=O)[C@@H](N)Cc1ccc(O)cc1 the results were BJeLR viability -22.8.
`NC(=O)c1ccc(N=Nc2c(O)[nH]c(=O)[nH]c2=O)cc1` gave BJeLR viability 2.5.
COc1ccc(C2NC(=O)N(CCCC(=O)O)C(C)=C2C(=O)OCc2ccccc2)cc1 (stereo unspecified) was read as BJeLR viability -12.2.
O=C1Nc2ccccc2C12Nc1ccccc1S2 (stereo unspecified) was read as BJeLR viability 1.4.
COC(=O)c1ccc(C23CC4(C2)[C@H](CN(Cc2ccc(-c5ccccc5)cc2)[C@@H]4c2ccccc2)C3c2ccc(Cl)nc2)cc1 (stereo partly specified) was read as BJeLR viability 16.4.
O=C(Sc1nnnn1C1CCCCC1)c1cccs1 was read as BJeLR viability 0.8.
Screening COc1cc([C@@H]2c3cc4c(cc3[C@@H](O)[C@@H](CO)[C@@H]2CO)OCO4)cc(OC)c1O[Si](C)(C)C(C)(C)C returned BJeLR viability 6.0.
CC(C)C[C@H](NC(=O)c1nc[nH]c1C(=O)N[C@@H](CC(C)C)C(=O)OC(C)(C)C)C(=O)OCc1ccccc1 was read as BJeLR viability 8.0.
`CCCCCCNC(=O)N[C@H](Cc1ccc(O)cc1)C(=O)NCCC[C@H]1CN2C(=NC[C@H]2CCC)N1CC1CCC1` gave BJeLR viability -2.6.
C[C@@]1(CO)[C@H](O)CC[C@@]2(C)[C@H]1CC[C@H]1C[C@@H]3C[C@@]12CC[C@]3(O)CO was read as BJeLR viability 34.4.
O=C1N=c2ccc(Br)cc2=C1c1sc(=O)[nH]c1O was read as BJeLR viability -1.8.
Screening CCCC[C@@H]1C[C@H]1[C@@H](NC(=O)c1cccs1)c1ccc(C(F)(F)F)cc1 returned BJeLR viability -6.2.
For CCCCCOC(=O)C1[C@H]2C(=O)N(CCCOC)C[C@]23C=C[C@H]1O3 (stereo partly specified) the results were BJeLR viability 4.2.
Screening COc1ccc([C@H]2C=C3CN(C(=O)OC(C)(C)C)S(=O)(=O)[C@H]3C[C@H]2OC(=O)c2cccs2)cc1 returned BJeLR viability -3.0.
Cc1cc2c(n1-c1ccc(C(=O)O)cc1)CCCCC2 was read as BJeLR viability 3.3.
Screening CCOC(=O)O[C@]1(C(=O)OCCl)CC[C@H]2[C@@H]3CCC4=CC(=O)C=C[C@]4(C)[C@H]3[C@@H](O)C[C@@]21C returned BJeLR viability 3.2.
Screening Cc1ccc(C2=[N+]([O-])C3(CCCCC/C3=N\NC(N)=S)N(O)C2(C)C)o1 (stereo unspecified) returned BJeLR viability -1.6.
Screening COc1cccc(NC(=O)c2cc3cccc(OC)c3o/c2=N\O)c1 returned BJeLR viability 5.6.
Screening COc1ccc(-c2ccc(CNCc3ccccn3)o2)cc1Cl returned BJeLR viability -10.9.
`CC1OC(OC2C(OC3C(O[C@H]4CC[C@]5(C)C6C=C[C@]78OC[C@@]9(CC[C@@H](C)[C@H](C)C97)[C@H](O)C[C@@]8(C)[C@]6(C)CC[C@H]5C4(C)C)OC(C)C(O)C3O)OC(CO)C(O)C2O)C(O)C(O)C1O` (stereo partly specified) gave BJeLR viability 3.6.
`CN1CCN(c2ccc([N+](=O)[O-])cc2/C=N/NC(=O)c2cccc([N+](=O)[O-])c2)CC1` gave BJeLR viability -3.2.
For CC(C)(C)OC(=O)NCCCCC1=CC2=CC(=O)C(C)(OC(=O)c3ccco3)C(=O)C2=CO1 (stereo unspecified) the results were BJeLR viability 4.8.
For COc1ccc2o/c(=N/NC(=S)Nc3ccccc3)c(C(N)=O)cc2c1 the results were BJeLR viability -0.2.
Cc1nc2ccccc2c2c1C(=O)NC2=O was read as BJeLR viability -0.4.
For CC[C@@H](C(N)=O)N1CCCC1=O the results were BJeLR viability -3.9.
O=C(CSCc1ccco1)c1ccc(Cl)s1 was read as BJeLR viability 12.0.
`N#CC(C#N)=Cc1ccccc1OCc1ccccc1` gave BJeLR viability -6.6.
Screening CCn1c(SCC(=O)N/N=C/c2ccccc2OCC(=O)O)nnc1-c1ccccc1 returned BJeLR viability -3.4.
For Cc1cc2nc(-c3ccc(SCC(=O)NC(C)C)nc3)[nH]c2cc1C the results were BJeLR viability 11.3.
`N#CC1=C(N)Oc2c(ccc3ccccc23)C1c1cccs1` (stereo unspecified) gave BJeLR viability 35.0.
For O=C(N/N=C/c1ccc2nccnc2c1)c1ccccc1O the results were BJeLR viability 1.8.
`COc1ccc(N=Nc2n(C)c3ccccc3[n+]2C)cc1` gave BJeLR viability 52.5*.
For C/C(=N\OCc1cccc(C(=O)O)c1)c1ccc(Cl)cc1 the results were BJeLR viability -2.0.
CC1(O)C(=O)C=C2C=C(C3CC3)OC=C2C1=O (stereo unspecified) was read as BJeLR viability 10.5.
Screening Cc1ccc(C(=O)c2ccc(C(F)(F)F)cc2)cc1 returned BJeLR viability -2.3.
CC(=O)OC[C@H]1O[C@@H](O/N=C(\C)CCN2CCCCc3nc(C)c(C)cc32)[C@H](OC(C)=O)[C@@H](OC(C)=O)[C@@H]1OC(C)=O was read as BJeLR viability 1.4.
Screening O=C(N/N=C/c1ccc([N+](=O)[O-])o1)c1cn(-c2ccccc2)nc1-c1ccc(F)cc1 returned BJeLR viability -4.4.
Screening CCN1CCN(CCNC(=O)C2CCN(Cc3nc(-c4ccc(Cl)cc4)oc3C)CC2)CC1 returned BJeLR viability -0.1.
`O=C(CSc1nnc2c3ccccc3c3ccccc3c2n1)Nc1ccccc1` gave BJeLR viability -4.7.
For Oc1cc2c(cc1O)[C@H]1c3ccccc3CN[C@@H]1CC2 the results were BJeLR viability 11.0.
For CCCCCCc1cc2cc(C(N)=O)c(=N)oc2cc1O the results were BJeLR viability -14.6.
For COc1ccc(CNC(=O)c2sc3nc4c(c(C(F)(F)F)c3c2N)CCC4)cc1 the results were BJeLR viability 9.4.
For C/C=C\C(=O)Nc1cccc(C2=NOC3(C2)C[C@@H](C(N)=O)N(C(=O)c2ccc(OC)cc2)C3)c1 (stereo partly specified) the results were BJeLR viability -8.3.
Screening Cc1cc(C)n(C(=O)C23CC4CC(CC(C4)C2)C3)n1 returned BJeLR viability -0.5.
